NPYLR7 agonist: agonists of mosquito NPYLR7 receptor, primary screen, cell-based, Aedes aegypti, calcium fluorescence, mosquito biting behavior. Aedes aegypti neuropeptide Y-like receptor 7 (NPYLR7). HEK293T NPYLR7/Galpha15, GCaMP6s calcium fluorescence. activation, % at 10 µM. hit rate 0.15% among 270,000. AID 1259423, 2018; in the data active = activation above about 40%;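 also: 0% = vehicle and 100% = reference agonist at the receptor; some compounds past the cut are filed as inactive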
NPYLR7 agonist max-min: further read-out of NPYLR7 agonist, marked with its call; activation, %; measured here: Max-Min RFU normalised activation; some inactives read as strong as hits;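 span of the calcium signal over five minutes; 0% = vehicle and 100% = native peptide agonist; compound fluorescence can raise it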
* hit, by the source's call; & = joins results of further samples. An excerpt (hit frequency here may not be typical).

Every second line gives: NPYLR7 agonist | NPYLR7 agonist max-min
Cn1ccnc1C(NS(=O)(=O)/C=C/c1ccccc1)c1ccc(F)cc1 (stereo not drawn)
 : 1 | 1
O=c1cnc2ccccc2n1CCS(=O)(=O)N1CCCC1c1ccc2c(c1)OCCO2 (stereo not drawn)
 : 1 | -1
CCC(C)NC(=O)c1nn(-c2ccc(C)c(F)c2)c(=O)n(C(C)c2ccccc2)c1=O (stereo not drawn)
 : -5 | -4
O=C(c1ccc(Cl)c(Cl)c1)N1CCCN(c2nc(Cc3ccccc3)ns2)CC1
 : -5 | 4
CC1CN(c2nc(Cc3ccc(Cl)cc3)ns2)CCN1C(=O)Nc1cccc(C#N)c1 (stereo not drawn)
 : 17 | 19
Cc1ccc(CCC(=O)N2CCC(CO)(Cc3ccccc3)CC2)cc1
 : 1&12 | 0&3
CN1CCC2(CC1)CN(C(=O)c1ccc3cccc(F)c3n1)CCN2C
 : 20 | 10
CCc1[nH]n(C)c(=O)c1C1=C(N(C)C2CCCCC2)C(=O)N(C2CCCCC2)C1=O
 : -7 | 0
COc1ccc(CN(CC2CCCO2)C(=O)CC(C)(C)C)cc1OS(=O)(=O)C(C)C (stereo not drawn)
 : 8 | 21
O=C1CC2(CCCC2)C(=O)N1CN1CCN(S(=O)(=O)c2ccccc2C(F)(F)F)CC1
 : 4 | -1
CCOC(=O)N1CCN(CC(=O)N2N=C(c3ccc(F)cc3)CC2c2cccn2C)CC1 (stereo not drawn)
 : -4 | 10
CC(Nc1nc2c(s1)CCCC2)c1ccccc1 (stereo not drawn)
 : 7 | 2
COc1ccc(-n2nnc(C(=O)N3CCOCC3)c2C)cc1Cl
 : 10 | 7
CC1C(=O)N(c2ccc(Cl)cc2Cl)CCN1C(=O)c1cccc(Br)c1 (stereo not drawn)
 : 0 | 3
O=C1C=CC(=O)N1c1cccc(SC(F)(F)C(F)(F)C(F)(F)F)c1
 : 15 | 24
O=C(NC1CCCCC1)N1CCN(Cc2nnnn2-c2ccc(F)cc2)CC1
 : 3 | 2
CC(NC(=S)Nc1ccccc1Cl)c1ccc2c(c1)OCCCO2 (stereo not drawn)
 : -10 | -10
CCOC(=O)C1=C(C)N=c2s/c(=C\c3c[nH]c4ccccc34)c(=O)n2C1c1ccc2c(c1)OCO2 (stereo not drawn)
 : -5 | 2
c1ccc2c(NN=C3CCCCCC3)nncc2c1
 : -7 | -11
COc1ccc(CNC(C)CN2CCCC2=O)cc1OCc1cccnc1 (stereo not drawn)
 : 3 | -2

The list goes on; the last five above are carried over.
Every second line gives: NPYLR7 agonist | NPYLR7 agonist max-min
O=C(NC1CCCCC1)N1CCN(Cc2nnnn2-c2ccc(F)cc2)CC1
 : 3 | 2
CC(NC(=S)Nc1ccccc1Cl)c1ccc2c(c1)OCCCO2 (stereo not drawn)
 : -10 | -10
CCOC(=O)C1=C(C)N=c2s/c(=C\c3c[nH]c4ccccc34)c(=O)n2C1c1ccc2c(c1)OCO2 (stereo not drawn)
 : -5 | 2
c1ccc2c(NN=C3CCCCCC3)nncc2c1
 : -7 | -11
COc1ccc(CNC(C)CN2CCCC2=O)cc1OCc1cccnc1 (stereo not drawn)
 : 3 | -2
c1csc(-c2nc(COc3ccc4c(c3)CCC4)co2)c1
 : 10 | 10
COc1ccc2oc(=O)c(-c3csc(Nc4ccccc4C)n3)cc2c1
 : -2 | -3
COc1ccc(-c2ccc3nnc(-c4ccc(OCCCN(C)C)cc4)n3c2)cc1OC
 : 7 | -5
O=c1oc(-c2ccncc2)nc2cc(Cl)ccc12
 : 0 | -4
CNC(=O)c1ccc(-c2ccc(OC)c3ncccc23)s1
 : -2 | -5
O=C(Nc1nc(CCC(=O)N2CCCCC2)cs1)NC1CCCCC1
 : 12 | 12
Cc1cccc(Cn2c(C(=O)N3CCN(S(=O)(=O)/C=C/c4ccccc4)C(C)C3)cc3ccoc32)c1 (stereo not drawn)
 : 0 | 1
Cc1cccc(C)c1NC(=O)CSc1nnc(N2CCCC2)n1C1CC1
 : 8 | 2
Cc1nc2c(c(=O)n1C)CCN(C(=O)CN1CCCCC1=O)CC2
 : 7 | -4
COc1cccc(-c2cc(C(=O)N3CCN(C/C=C/c4ccccc4)CC3)n3nc(-c4ccccc4)cc3n2)c1
 : -8 | 3
COc1cc(C(O)C(=O)O)ccc1O (stereo not drawn)
 : 1 | -27
CC1(C(=O)NS(=O)(=O)c2cccc(C#N)c2)CCN1C(=O)C1(c2ccc(Cl)cc2)CCC1 (stereo not drawn)
 : -1 | -2
CCc1cnc(CCNC(=O)N2CCNC(=O)CC2)s1
 : 0 | -2
CCOC(=O)C1CCN(C(=O)c2cc(F)c(-n3ccnc3-c3ccccc3)cc2F)CC1
 : 6 | 5
COc1ccc2c(c1)c(CC(=O)O)c(C)n2Cc1ccc(Cl)cc1
 : 9 | -5
Cc1cc(CC(C)NC(=O)Cc2c(C)nc3ccccn23)n[nH]1 (stereo not drawn)
 : 5 | 6
CC(C)OCCCNC(CC(=O)Nc1c(Cl)cccc1Cl)C(=O)O (stereo not drawn)
 : -3 | -2
Cc1ccc(-c2ccc(CCC(=O)NCCCn3ccnc3)n2-c2ccc(CC#N)cc2)c(C)c1
 : -3 | 4
Cc1ccc(NC(=O)CCNC(=O)N2CCc3ccccc32)nc1
 : 3 | 2
Cc1cc(C)c2sc(N(CCCN(C)C)C(=O)c3ccno3)nc2c1
 : 1 | 33
COc1ncccc1C(=O)N1C[C@H](N)C[C@H]1C(=O)NC(C)C
 : 11 | 3
O=C(NCc1ccc(F)cc1)c1cc(-c2ccccc2F)nc2cc(-c3ccc(Cl)cc3)nn12
 : 11&1 | 5&10
COc1ccc2nc(-c3cccc(NC(=O)Cc4ccccc4)c3)cn2n1
 : -14 | -18
Cc1noc(-c2ccc(N3CC[C@@H](c4ccc5c(c4)OCO5)[C@H](O)C3)nc2)n1
 : -4 | -4
N#Cc1ccc(COc2cccc(I)c2)cc1
 : 6 | 4
Cc1ccc(N=Nc2c(C)[nH]n(-c3nc(-c4ccc(Br)cc4)cs3)c2=O)cc1Br
 : 3 | 1
Cc1cc(=O)c(C(=O)Nc2cc(Cl)ccc2C(=O)N(C)C)nn1-c1ccccc1F
 : 4 | 5
CCOC(=O)N1CCN(c2ccc([N+](=O)[O-])cc2)CC1
 : -10 | -17
O=C1C2C3C=CC(C3)C2C(=O)N1c1cccc(O)c1 (stereo not drawn)
 : -16 | -18
Cc1c(C(=O)NCCCCc2ccccc2)cnc2c(-c3cccc(Cl)c3)cnn12
 : 2 | -10

Record cards, from the list above. Values in the order: NPYLR7 agonist	NPYLR7 agonist max-min
Cc1cc(=O)c(C(=O)Nc2cc(Cl)ccc2C(=O)N(C)C)nn1-c1ccccc1F in the list: 4	5
Cc1c(C(=O)NCCCCc2ccccc2)cnc2c(-c3cccc(Cl)c3)cnn12 in the list: 2	-10
Cc1ccc(N=Nc2c(C)[nH]n(-c3nc(-c4ccc(Br)cc4)cs3)c2=O)cc1Br in the list: 3	1
CCOC(=O)N1CCN(c2ccc([N+](=O)[O-])cc2)CC1 in the list: -10	-17
O=C(NCc1ccc(F)cc1)c1cc(-c2ccccc2F)nc2cc(-c3ccc(Cl)cc3)nn12 in the list: 11&1	5&10

Later entries:
Every second line gives: NPYLR7 agonist | NPYLR7 agonist max-min
Cc1cc(C(=O)N(CCn2nc(C)cc2C)c2nc3c(C(C)C)cccc3s2)on1
 : -16 | -22
N#CC(=Cc1ccc(Br)cc1)c1nnc2n1CCCCC2
 : -10 | -18
COc1cc(C(=O)NCCNc2ccc(Nc3ccccn3)nn2)cc(OC)c1OC
 : 19 | 10
CC(C1CC2CCC1C2)n1c(SCC#N)nnc1-c1cccs1 (stereo not drawn)
 : 0 | -3
O=C(C1CC(Cc2cccc(Cl)c2)=NO1)N1CCN(c2ncc3ccccc3n2)CC1 (stereo not drawn)
 : 2 | -1
OC[C@H]1O[C@@H](OCCc2ccc(O)cc2)[C@H](O)[C@@H](O)[C@@H]1O
 : -7 | -12
Cc1cc(C(C)NC(=O)N2CCN(c3cnn(C)c3)C(=O)C2)c(C)o1 (stereo not drawn)
 : 2 | 173
Cc1nnc(SCC(=O)c2ccc(Br)s2)n1C1CCCCC1
 : 1 | 7
Cc1cc(C(=O)N(CCN2CCOCC2)c2nc3ccc(F)cc3s2)on1
 : -2 | 10
Cc1[nH]n(-c2ccccc2)c(=O)c1N=Nc1ccc(F)cc1
 : -8 | -7
CC1CCN=C(N)S1 (stereo not drawn)
 : 1 | 2
Cc1cccc2sc(Cl)nc12
 : -15 | -17
Cc1[nH]c2ccccc2c1C(c1cccnc1)c1c(C)[nH]c2ccccc12
 : -2 | -2
COc1cccc(Cc2nsc(N3CCCC3C(=O)O)n2)c1 (stereo not drawn)
 : -8 | -19
CCOC(=O)CCc1c(C)nc2ncnn2c1N1CCN(S(=O)(=O)c2cccc(Cl)c2C)CC1
 : 23 | 16
Cc1cc(C)cc(-n2c(C)cn3c4c(=O)n(CCN5CCOCC5)c(=O)n(C)c4nc23)c1
 : 1 | 1
Cc1n[nH]c(C)c1C(NC(=O)CSC12CC3CC(CC(C3)C1)C2)C(=O)O (stereo not drawn)
 : 1&-1 | -2&-4
CCCCCCOc1ccccc1-c1nc2ccccc2c(=O)n1CCc1ccc(OC)cc1
 : 3 | 4
CC1=CC[C@@H]2CN(C(=O)Cc3cnc4c(C)cccn34)C[C@@H]2C1
 : 6 | 7
CC(NC(=O)CCCc1nnc2c(=O)n(-c3ccc(Cl)cc3)ccn12)c1ccccc1 (stereo not drawn)
 : -2 | -5
O=C(c1ccc(-c2ccccc2)cc1)C1CCCN(C(=O)CCn2cnnn2)C1 (stereo not drawn)
 : -5 | -6
COc1ccccc1-c1ccnc(-n2ncc(C(=O)NC3Cc4ccccc4C3)c2C2CC2)n1
 : 13 | 4
Cc1ccc(C(=O)NC(C)c2cnn(-c3ccccn3)c2C)cn1 (stereo not drawn)
 : 9 | 8
COc1ccc(C(=O)Nc2c(C)cc(C)cc2Cl)c(OC)c1
 : 1 | -1
O=C(Nc1cccc(F)c1)N1CCSC1c1ccc2c(c1)OCCO2 (stereo not drawn)
 : -5 | -4
COC1(C)CC(N(C)c2ncccn2)C1(C)C (stereo not drawn)
 : 10 | 10
O=S(=O)(c1ccccc1Cl)N1CCCC1c1nc2ccccc2[nH]1 (stereo not drawn)
 : 2 | 0
FC(F)(F)c1cccc(CN2CCN(c3cc(Oc4ccc(Cl)cc4)ncn3)CC2)c1
 : 11 | 10
Cc1nc2c(C)cccn2c(=O)c1NC(=O)c1ccc(C(C)(C)C)cc1
 : 0 | -1
CCc1cccc(CC)c1Nc1nnc(SCC(=O)NC(N)=O)s1
 : 0 | 4
COc1ccc(C2CCCN2S(=O)(=O)c2ccccc2Br)c(OC)c1 (stereo not drawn)
 : -2 | 15
COc1ccc(C)cc1C(C)NC(=O)c1ccccc1Cl (stereo not drawn)
 : 4 | 0
OCc1cc(-c2cc3ccccc3o2)on1
 : -3 | -4
COc1c(F)ccc(C(=O)N2CCOC(CN)C2)c1F (stereo not drawn)
 : 0 | -1
Cc1nonc1CC(=O)Nc1ccccc1Sc1c(C)n[nH]c1C
 : 6 | 4
O=C(CN1CC(c2ccccc2)CC1=O)NCCN1Cc2ccccc2OC(c2ccccc2F)C1 (stereo not drawn)
 : 19 | 4
O=C(C1CC2CCC1O2)N(Cc1ccc(F)cc1)CC(F)(F)F (stereo not drawn)
 : 1 | 0
O=C(CCc1nnc(CCc2ccccc2)o1)N1CCCC1c1nccs1 (stereo not drawn)
 : 3 | 0
